# SARS PLP yeast – inhibitors of SARS-CoV papain-like protease in yeast. S. cerevisiae expressing SARS-CoV PLpro, growth rescue; control for the full effect not named in the record. Potency, µM (top dose mostly 32.9 µM), for inactives: at the top dose activity, positive = growth rescue. actives 0.19% (n = 330,000). AID 485353; further: 0% is about no effect; nearly all actives have a fitted effect of over 55% in size; growth read by luminescence after 48 h
# Lassa entry inh – inhibitors of Lassa virus binding or cell entry. Lassa virus pseudotype entry inhibition, cell reporter; control for the full effect not named in the record. Potency, µM (series often up to 37.9 µM), without a hit: at the highest dose activity change, negative = inhibition, actives largely listed as inhibitors. actives 1.2% (n = 300,000); active means well fitted inhibition curve with a large enough effect; inconclusive means small, poorly fitted or top-dose-only effect, or effect the other way; inactive means flat fitted curve, though single readings scatter; tested in HEK293 cells; further: on the % scale 0 is the no-effect control and ±100 the full control effect; nearly all actives have a fitted effect of over 50% in size; luciferase read-out
# StopGo reporter – FMDV 2A StopGo reporter, luciferase signal. actives 1.2% (n = 410,000). human cells with a luciferase reporter of 2A StopGo recoding; control for the full effect not named in the record. Potency, µM (doses to about 57.9 µM), for the others: at the top dose signal change, negative = less light. AID 1159524; active = well fitted falling curve with a large enough effect; inconclusive = small, poorly fitted or top-dose-only effect; inactive = no such curve, though single readings can be large or run the other way; tested in HEK293T cells; further: on the % scale 0 is the no-effect control and ±100 the full control effect; nearly all actives have a fitted effect of over 45% in size; luciferase light after 4 h
# RE007 growth inh – less growth of the S. pombe RE007 Vpr strain; S. pombe RE007 Vpr strain, BacTiter-Glo ATP luminescence, 24 h; control for the full effect not named in the record; AID 651644; actives 0.21% (n = 360,000); Potency, µM (highest dose often 92.2 µM), for the others: at the highest dose activity change, negative = less growth; active = well fitted falling curve with a large enough effect; inconclusive = small, poorly fitted or top-dose-only effect; inactive = no such curve, though single readings can be large or run the other way;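 further: on the % scale 0 is the no-effect control and ±100 the full control effect; nearly all actives have a fitted effect of over 50% in size; the assay follows cell death caused by Vpr and the record does not say whether a fall means rescue or toxicity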
#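 Fission yeast RE007 carrying one integrated HIV-1 vpr copy, seeded at OD 0.01 in PMG+AL medium with 23 nL pinned compound. Grown 24 h at 30 degrees; viability read by BacTiter-Glo luminescence after 5 min.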
# Cruzain noTriton – inhibitors of Trypanosoma cruzi cruzain without detergent | Potency, µM, inactives show max response, negative = inhibition, hits mostly inhibitors | actives 2.3% (n = 200,000) | purified cruzain, Z-FR-AMC fluorescence, no detergent; active means well fitted curve in the direction sought with a large enough effect; inconclusive means small, poorly fitted or top-dose-only effect, or another doubt; inactive means no such curve, though single readings can be large; an effect the other way counts as inactive or inconclusive;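 further: plate controls were enzyme without inhibitor for no effect and buffer without enzyme for full effect; nearly all actives have a fitted effect of over 40% in size; top concentration of the series not given in the record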
# Target sequence (P25779 123-467 limits assumed): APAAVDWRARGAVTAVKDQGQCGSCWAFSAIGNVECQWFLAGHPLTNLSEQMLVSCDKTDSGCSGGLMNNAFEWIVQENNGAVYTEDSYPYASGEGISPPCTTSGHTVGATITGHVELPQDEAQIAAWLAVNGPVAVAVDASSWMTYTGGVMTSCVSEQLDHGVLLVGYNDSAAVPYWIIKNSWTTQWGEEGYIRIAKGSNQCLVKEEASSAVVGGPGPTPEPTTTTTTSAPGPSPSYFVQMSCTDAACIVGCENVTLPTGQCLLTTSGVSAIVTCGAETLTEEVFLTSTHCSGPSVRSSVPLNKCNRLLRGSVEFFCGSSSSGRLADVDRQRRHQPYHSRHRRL
#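 Purified cruzain at 1.5 nM, pre-incubated 15 min with compound at room temperature in 100 mM sodium acetate pH 5.5, 5 mM DTT, 0.00005% Triton X-100. Reaction started with 2 uM Z-FR-AMC; AMC fluorescence increase over 60 s gives rate.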
# MARV entry inh – Marburg virus entry inhibition. Marburg virus pseudotyped entry inhibition, cell reporter; control for the full effect not named in the record; about a third of the inactives were read at about 46 µM. actives 1.8% (n = 300,000). Potency, µM (highest dose often 37.8 µM), without a hit: top-dose activity change, negative = inhibition, most hits filed as inhibitors. AID 540276; active = well fitted inhibition curve with a large enough effect; inconclusive = small, poorly fitted or top-dose-only effect, or effect the other way; inactive = flat fitted curve, though single readings scatter; tested in HEK293 cells; about a fifth of its hits are not listed in these tables; further: on the % scale 0 is the no-effect control and ±100 the full control effect; luciferase read-out
# Cruzain Triton – blocks cruzain activity in presence of Triton detergent; purified cruzain, Z-FR-AMC fluorescence, 0.01% Triton; actives 0.43% (n = 200,000); Potency, µM, inactives show max response, negative = inhibition, actives largely listed as inhibitors; active means well fitted curve in the direction sought with a large enough effect; inconclusive means small, poorly fitted or top-dose-only effect, or another doubt; inactive means no such curve, though single readings can be large; an effect the other way counts as inactive or inconclusive;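 further: plate controls were neutral wells for no effect and buffer without enzyme for full effect; nearly all actives have a fitted effect of over 40% in size; top concentration of the series not given in the record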
#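 15 min RT preincubation of 1.5 nM cruzain with compound, then 2 uM Z-FR-AMC added; kinetic AMC fluorescence, 60 s delta. Triton X-100 0.01%, pH 5.5.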
# NS1 function inh – blocks influenza NS1 protein function. S. cerevisiae slowed by influenza A NS1, growth recovery by OD600. Potency, µM (highest dose often 46.1 µM), for the others: top-dose activity, positive = more growth. actives 0.4% (n = 270,000). AID 2326; further: actives are rising curves; nearly all actives have a fitted effect of over 50% in size
#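 Recovery from NS1-induced slow growth read by OD600 in budding yeast switched to galactose assay medium (pH 6.0, -URA) at 1:100 dilution. Compound 23 nl per well; the matching strain lacking NS1 serves as control.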
# * = called active by the depositor; ? = inconclusive; / = no result given; & = joins results of further samples; [ ] = dose if it differs, or a comment. Unless noted, the call rests on the fitted dose curve; in most records, active means well fitted rising curve with a large enough effect; inconclusive means small, poorly fitted or top-dose-only effect; inactive means no such curve, though single readings can be large or run the other way. Potency means the concentration at half of the fitted maximal effect.
SMILES,SARS PLP yeast,Lassa entry inh,StopGo reporter,RE007 growth inh,Cruzain noTriton,MARV entry inh,Cruzain Triton,NS1 function inh
CCCCn1nc(NC(=O)COC)c2cc3ccc(C)cc3nc21,-2%,/,-10%,-22%,/,/,/,-5%
COc1ccc(C(=O)Nc2ccc(S(=O)(=O)Nc3onc(C)c3C)cc2)cc1,0%,1%,11%,0%,-9%,?,1.7%,-33%
CCC(C)(C)NC(=O)C1CCN(S(=O)(=O)c2c(C)noc2/C=C/c2ccc(C)cc2)CC1,/,-18%[46.1 µM],-14%,/,-1%,/,-2.1%,/
COc1ccc(NC(=O)Cc2c(Cl)cccc2Cl)cn1,-1%,-19%,-8%,6%,/,0%[46.1 µM],/,/
COc1ccc2oc(C(=O)OCC(=O)Nc3ccc(NC(C)=O)cc3)c(C)c2c1,4%,4%,17%,-3%,/,-7%,/,/
Cc1ccc(C)n1Cc1ccccc1Cl,0%,15%[46.1 µM],-21%,14%,/,27%[46.1 µM],/,8%
Cc1ccc(O)c(NC(=O)c2cc(-c3ccc4c(c3)OCO4)on2)c1,/,2%[46.1 µM],20%,/,-3%,14%[46.1 µM],-1.8%,/
COc1ccc(-c2cc3c(=O)n(CC(=O)NCc4cccnc4)ncn3n2)cc1,7%,/,2%,9%,/,/,/,-7%
O=C(O)c1ccccc1C(=O)c1cccc2c(Br)cccc12,/,25%[46.1 µM],-1%,3%,/,-19%[46.1 µM],/,/
CC(=O)Nc1ccccc1C(=O)N1CC2(C)CC1CC(C)(C)C2 (stereo not given),3%,7%,-2%,13%,3%,17%[46.1 µM],4.3%,0%
C/C(N)=C(/C#N)C(=O)CSc1nnc(COc2cc(C)ccc2C)o1,3%,-13%,/,13%,-1%,-16%,4.5%,-7%
Cc1cc(C)c(S(=O)(=O)c2ccccc2)c(OC(=O)c2c(Cl)cccc2Cl)n1,-7%,-23%,-16%,3%,-8%,?,-0.3%,-4%
CCOC(=O)Cn1c(=O)oc2cc(S(=O)(=O)NCCc3ccc(OCC)c(OCC)c3)ccc21,5%,5%,11%,13%,-1%,?,-1.3%,12%
NC(=O)c1ccccc1NC(=O)Cc1cccs1,?,-30%[46.1 µM],3%,12%,/,?,/,2%
COc1cccc(CSc2nc3n(n2)C(CC(C)C)C(C(=O)Nc2ccccc2C)=C(C)N3)c1 (stereo not given),/,-11%[46.1 µM],0%,/,-4%,/,1.8%,/
Cc1cc(C)cc(NC(=O)C2(c3cccs3)CCOCC2)c1,17%,-11%[46.1 µM],-16%&-21%,-5%,-7%&-6%,14%&14%,0.6%&1.4%,-1%
Cc1ccc(C)c(NC(=O)Cn2c(=O)ccc3cc(S(=O)(=O)N4CCCC4)ccc32)c1,/,-17%[46.1 µM],-25%,/,-8%,/,-0.4%,/
COc1ccc(-c2nn(C)c(=O)c3ccccc23)cc1NC(=O)COc1ccc(C)cc1,-2%,5.8µM*,?,12%,6%,?,6.3%,10%
Cc1nc([N+](=O)[O-])nn1C12CC3CC(CC(Br)(C3)C1)C2,4%,?,-1%,-2%,?,21%,2.0%,5%
c1ccc(Sc2ccccc2CN2CCCC2)cc1,/,?,-21%,-15%,/,?,/,/
CC(C)OC(=O)CSc1nnnn1-c1ccc2c(c1)OCCO2,-10%,22%,/,9%,1%,0%,-1.6%,-2%
O=C(Nc1cccc(F)c1)C1CCN(c2nc3ccccc3nc2C(F)(F)F)CC1,/,-9%[46.1 µM],?,/,3%,/,-6.3%,/
CCC(=O)Nc1nonc1-c1nc2ccccc2n1Cc1cccc2ccccc12,1%,?,?,-8%,?,/,-2.1%,17%
S=C(NCCCN1CCOCC1)N1CCN(c2nc(-c3ccccc3)cs2)CC1,0%,?,?,-4%,/,?,/,6%
Cc1cc(C)n(-c2nc3ccccc3nc2Nc2ccc3c(c2)OCO3)n1,7%,/,4%,-3%,-14%,/,-6.1%,-25%
CC1CC(C)CN(C(=O)COC(=O)c2ccc3ccccc3n2)C1 (stereo not given),0%,5%,-24%,3%,/,5%,/,/
CSc1ncccc1C(=O)Nc1ccncc1,10%,/,14%,-5%,/,/,/,9%
CC(=O)c1ccc(NC(=O)c2cc(C)nn2-c2ccccc2)cc1,/,-3%[46.1 µM],-2%,/,2%,?,-4.2%,/
CN1CCN(c2ccc(CNC(=O)c3cc4ccccc4o3)cc2)CC1,-1%,15%[46.1 µM],6%,3%,/,-5%[46.1 µM],/,-2%
COc1ccc(CCNC(=O)C2(C)CCC(=O)N2Cc2ccc(C)cc2)cc1OC (stereo not given),2%,0%[46.1 µM],-6%,0%,/,2%[46.1 µM],/,-3%
CCOc1ccc(S(=O)(=O)NCC(c2cccs2)S(=O)(=O)c2ccc(C)cc2)cc1 (stereo not given),/,?,21%,/,1%,/,-5.2%,/
O=C(NCCN1CCOCC1)c1cccc(S(=O)(=O)N2CCCCC2)c1,/,-5%,-11%,7%,/,19%,/,/
COc1cc2[nH]c(C(=O)NCc3ccccc3)cc2c(OC)c1OC,-1%,/,21%,1%,/,?,/,-5%
O=C(O)CNCC1COc2ccccc2O1 (stereo not given),5%,12%,-8%,-4%,-1%,1%,4.9%,0%
CCN(CC(=O)NCc1ccc(Cl)cc1)C(=O)CSc1ccccc1,-3%,-13%,8%,21%,/,3%,/,/
COc1ccc(NC(=O)COc2ccc(C)cc2)c([N+](=O)[O-])c1,-8%,-8%[46.1 µM],4%,7%,/,?,/,/
O=C(CCNS(=O)(=O)c1cccs1)N1CCCCCC1,4%,-6%,18%,-14%,-8%,3%[46.1 µM],6.3%,9%
COc1ccccc1NC(=O)c1ccc(C(=O)Nc2ccccc2OC)nc1,-13%,30%[46.1 µM],-16%,-9%,/,-5%[46.1 µM],/,6%
CC(=O)N1CCCc2cc(S(=O)(=O)N3CCCC(C(=O)Nc4cccc(C)c4)C3)ccc21 (stereo not given),-1%,/,-26%,-2%,/,/,/,-7%
O=C(CSc1nc(=O)[nH]c2c1CCCC2)Nc1cc(C(F)(F)F)cc(C(F)(F)F)c1,/,-1%,?,-8%,/,-2%,/,/
CC(C)(C)NC(=O)Cn1c(=O)n(CC(=O)NC(C)(C)C)c2ccccc21,1%,4%[46.1 µM],-5%,-1%,/,8%,/,-1%
C=CCn1c(=S)sc2c(=O)[nH]c(C)nc21,1%,/,-4%,4%,/,/,/,-2%
C/C(=N\NC(=O)C1CC1c1ccccc1)c1cccc([N+](=O)[O-])c1 (stereo not given),4%,?,-4%,9%,?,-3%,1.3%,-5%
CC(C)Nc1c([N+](=O)[O-])c(=O)oc2ccccc12,3%,-5%,8%,5%,/,-4%[46.1 µM],/,/
Cc1cccnc1NC(=O)C(c1ccccc1)c1ccccc1,1%,-5%[46.1 µM],-7%,0%,/,6%[46.1 µM],/,14%
O=C1OC(c2ccccc2)=C/C1=C/N1CCOCC1,-10%,8%,/,?,-7%,13%,-5.9%,3%
O=C1C2CCCN2C(=S)N1C1CCCCC1 (stereo not given),1%,/,-1%,0%,/,/,/,-4%
CCOc1ccccc1NC(=O)COC(=O)CNS(=O)(=O)c1ccc(C)cc1,11%,-6%,-14%,0%,-20%,?,-10%,-28%
NC1=NC(=O)/C(=C/c2ccccc2OCC(=O)Nc2ccc(F)cc2)S1,-21%,18%[46.1 µM],7%,2%,/,-14%[46.1 µM],/,/
Cc1ccc(-c2nc(CS(=O)(=O)CC(=O)Nc3ccc(Br)cc3F)c(C)o2)cc1,/,18%[46.1 µM],-6%,/,3%,6%[46.1 µM],-0.9%,/
# Remaining list, next part
SMILES,SARS PLP yeast,Lassa entry inh,StopGo reporter,RE007 growth inh,Cruzain noTriton,MARV entry inh,Cruzain Triton,NS1 function inh
COc1ccc2c(c1OC)C(=O)N(c1ccc(O)cc1)C2=O,4%,4%,10%,-24%,/,-7%[46.1 µM],/,-4%
COc1ccccc1NC(=O)c1ccc(NC(=O)CSc2ncccn2)cc1,-2%,19%,3%,15%,/,?,/,-5%
O=S(=O)(c1ccc(Br)cc1)c1nc(-c2ccco2)oc1SCc1ccccc1F,/,8%[46.1 µM],1%,/,?,4%[46.1 µM],-4.4%,/
O=C(N/N=C/c1c(O)n(CCc2ccccc2)c(=O)[nH]c1=O)c1ccccc1,-2%,12%,18%,-2%,/,17%,/,-1%
CCc1ccccc1NC(=O)C1CCCN1S(=O)(=O)c1ccc(-c2ccc(=O)[nH]n2)s1 (stereo not given),3%,/,-8%,5%,/,/,/,27%
Cc1ccc(Cl)cc1N1CCN(c2nc3ccc(C(=O)c4ccccc4)cc3n3cnnc23)CC1,/,?,3%,/,-17%,/,-2.8%,/
O=Cc1ccc(OCc2cccc(C(F)(F)F)c2)cc1O,-6%,-4%[46.1 µM],4%,-11%,/,?,/,-2%
COc1cccc2cc(-c3csc(-c4ccc(Cl)cc4)n3)c(=O)oc12,/,20%[46.1 µM],16%,/,-6%,/,2.3%,/
Cc1ccc(SCCNC(=O)c2ccc(CN3CCOCC3)cc2)cc1,-1%,22%[46.1 µM],-14%,1%,/,-8%[46.1 µM],/,-4%
CN1CCN(CC(=O)N2c3ccccc3C(C)(c3ccc(Cl)cc3)CC2(C)C)CC1 (stereo not given),-9%,?,-13%,-7%,9%,?,3.7%,-68%
CN(C)CC(C)(C)CNC(=S)Nc1cc(S(=O)(=O)N2CCOCC2)ccc1Cl,-2%,11%,-4%,24%,/,-3%[46.1 µM],/,2%
COc1ccc(/C=C(\C#N)C(=O)NCC(c2ccc(F)cc2)N2CCOCC2)cc1 (stereo not given),-3%,/,-22%,-4%,/,/,/,-36%
CC(=O)n1c(=O)c2ccccc2c(=O)n1-c1ccccc1,-1%,-8%,-9%,3%,/,-3%,/,11%
CCOC(=O)c1c(S(=O)(=O)N2CCCC(C)C2)c(C)n(C)c1C (stereo not given),1%,/,15%,-11%,/,/,/,?
CCOc1ccc(C(=O)NC(=S)NCc2cccnc2)cc1[N+](=O)[O-],?,-18%,?,8%,-7%,?,-3.4%,21%
Cc1ccnc(NC(=O)c2ccc3c(c2)S(=O)(=O)c2ccccc2C3=O)c1,0%,1%,3%,-3%,/,-1%[46.1 µM],/,-5%

# Bioassay records (PubChem)
